Bioassay records deposited in PubChem BioAssay by National Center for Advancing Translational Sciences (NCATS).
HPGD inh: blocks human HPGD enzyme activity; P15428; purified HPGD, NADH fluorescence kinetic, PGE2 substrate; Potency, µM, without a hit: at the top dose activity change, negative = inhibition, usual class: inhibitors; 150,000 compounds, 4.3% hits; AID 894; active = well fitted inhibition curve with a large enough effect (not every such curve was filed as active); inconclusive = small, poorly fitted or top-dose-only effect, or another doubt; inactive = no such curve, though single readings can be large or run the other way;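 note: top concentration of the series not given in the record; plate controls included wells without enzyme; inactives centre near -10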
Target sequence (P15428 whole entry, looked up): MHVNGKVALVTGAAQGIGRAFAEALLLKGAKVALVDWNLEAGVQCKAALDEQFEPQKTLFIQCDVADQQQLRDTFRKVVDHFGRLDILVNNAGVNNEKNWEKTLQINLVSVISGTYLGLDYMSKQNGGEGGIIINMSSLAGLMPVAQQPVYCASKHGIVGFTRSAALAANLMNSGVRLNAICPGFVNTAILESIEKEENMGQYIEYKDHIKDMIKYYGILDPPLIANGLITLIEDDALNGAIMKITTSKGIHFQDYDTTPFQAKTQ
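20 nM HPGD preincubated 15 min at room temperature with compound in 50 mM Tris-HCl pH 8, 0.01% Tween 20. Started with 1 mM NAD+ and 30 uM prostaglandin E2; NADH fluorescence (360/450 nm) read 5 times over 30-s intervals, last minus first.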
Starred values were filed as active, the others as inactive; ? = inconclusive. % is set by controls: 0 for no effect and ±100 for the full control effect; potency is the fitted concentration of half-maximal effect. An excerpt; rates above refer to the full screens.

Cc1cc(C)c(NC(=O)CSc2ccc3nnc(CCNC(=O)c4ccccc4)n3n2)c(C)c1
  HPGD inh: -17.1%

CCCCN(CCCC)c1nc2ccccc2nc1NS(=O)(=O)c1ccc(NC(C)=O)cc1
  HPGD inh: ?

CCSc1nnc(-c2cnn(-c3ccccc3)c2-n2cccc2)n1C
  HPGD inh: ?

CCOC(=O)CSc1nnc(CNC(=O)c2ccc(S(=O)(=O)N3CCCCC3)cc2)n1C
  HPGD inh: 0.3%

CC12CCC(C(=O)NCc3ccccn3)(OC1=O)C2(C)C (configuration not stated)
  HPGD inh: -7.3%

O=C(CCS(=O)(=O)Cc1ccccc1)N1CCN(Cc2ccccc2)CC1
  HPGD inh: -9.2%

COc1ccc(CN/C=C2\CCCCC2=O)cc1
  HPGD inh: -6.5%

Cc1ccc2c(c1)/C(=N/O)CCS2
  HPGD inh: -7.7%

COc1ccc(N(CC(=O)Nc2cc(OC)ccc2OC)S(=O)(=O)c2c(C)nn(C)c2C)cc1
  HPGD inh: -9.8%

N[C@@H](Cc1c[nH]c2ccccc12)C(=O)O
  HPGD inh: -25.5%

CCCCN(CCCC)Cc1ccc(N)cc1
  HPGD inh: -6.2%

Clc1ccc2nc(C3CCN(Cc4ccccc4)CC3)[nH]c2c1
  HPGD inh: 0.2%

CCN(CC)S(=O)(=O)c1cccc(N=NC2=C(O)CCCC2=O)c1
  HPGD inh: -5.8%

O=C(/C=C/c1ccco1)N1CCN(C/C=C/c2ccccc2)CC1
  HPGD inh: -22.6%

O=C(Cn1cc(C(F)(F)F)ccc1=O)NCCc1ccc(Cl)cc1Cl
  HPGD inh: -23.8%

CC1(C)CC2(CCO1)OC(=O)CC2C(=O)NCCc1ccccc1 (configuration not stated)
  HPGD inh: -12.5%

Cc1nc2ccc(N)cc2s1
  HPGD inh: -10.3%

CCCc1cc(=O)[nH]c(SCC(=O)NC)n1
  HPGD inh: -5.6%

Cn1c(SCCN2CCCCC2)nnc1-c1ccccc1Br
  HPGD inh: -2.4%

O=C(c1ccccc1)c1ccc(C(=O)N2CCN(c3ccc(F)cc3)CC2)o1
  HPGD inh: -4.3%

O=C(Nc1ncc(C(F)(F)F)cc1Cl)C1COc2ccccc2O1 (configuration not stated)
  HPGD inh: 2.6%

COc1ccc(N2CCN(C(=O)C3CCCO3)CC2)cc1 (configuration not stated)
  HPGD inh: -14.3%

O=C(NC1CCCC1)C(c1ccsc1)N(Cc1ccco1)C(=O)Cc1cccs1 (configuration not stated)
  HPGD inh: -14.1%

O=[N+]([O-])c1ccc(S(=O)(=O)CC2CSc3nc4ccccc4n32)cc1 (configuration not stated)
  HPGD inh: 1.3%

Cc1ccc(S(=O)(=O)N2CCN(Cc3ccccc3C(F)(F)F)CC2)cc1
  HPGD inh: -16.7%

CC1=CC(C)(C)N(C(=O)CN2C(=O)c3ccccc3C2=O)c2ccc(C)cc21
  HPGD inh: -15.9%

O=C(Nc1ccon1)c1cc2c(s1)CCCCCC2
  HPGD inh: -20.8%

CCn1c(SCC(=O)c2ccc(F)cc2)nnc1-c1ccoc1C
  HPGD inh: ?

Cc1cc(O)ccc1C1(c2ccc(O)cc2C)OC(=O)c2ccccc21
  HPGD inh: -12.0%

CC(C)C[C@@H](CC(=O)N[C@@H](CCCN)CC(=O)N[C@@H]1CCNC[C@H]1C(=O)N[C@H](CC(=O)N[C@@H](CCC(=O)O)CC(=O)O)Cc1ccccc1)NC(=O)[C@@H]1CCCC[C@H]1N
  HPGD inh: -2.6%

O=C(c1cccnc1)N(c1cc2sc(=O)oc2c2ccccc12)S(=O)(=O)c1ccccc1
  HPGD inh: 17.8µM*

O=S(=O)(N1CCOCC1)N1CCN(c2ccc(F)cc2)CC1
  HPGD inh: -7.7%

COc1ccc(/C=C2/CCOC2=O)cc1
  HPGD inh: 2.2%

O=C(COc1ccccc1)Nc1nnc(-c2ccc(Cl)s2)o1
  HPGD inh: ?

Cc1cc(NC(=O)CSc2nccn2-c2ccc(F)cc2)no1
  HPGD inh: -9.2%

COc1ccc(-n2nnnc2SCC(=O)NCc2ccco2)cc1OC
  HPGD inh: -18.1%

COc1ccc(-c2c(C(C)=O)c(C)nc3sc4c(=O)[nH]nnc4c23)cc1
  HPGD inh: 17.8µM*

Cc1ccccc1CSCC(=O)NC(=O)NCc1ccco1
  HPGD inh: -29.1%

CCOc1ccc2[nH]c(=O)c(CN(CCO)C(=O)c3ccc(OC)c(OC)c3)cc2c1
  HPGD inh: ?

O=C(O)CN(CCN(CC(=O)O)CC(=O)O)CC(=O)O.[Mn]
  HPGD inh: -2.7%

CC(C)C12CN3CC(C(C)C)(CN(C1)C3c1ccco1)C2=O (configuration not stated)
  HPGD inh: 0.1%

CC(C)COc1ccc(-c2nnc(-c3ccncc3)o2)cc1
  HPGD inh: ?

O=C(NC1CCCCC1)N1CCCc2ccccc21
  HPGD inh: -7.6%

COc1cccc(CNC(=O)CCn2c(=O)oc3ccccc32)c1
  HPGD inh: 6.2%

O=C(NCCCCNC(=O)c1ccc(Br)s1)c1ccc(Br)s1
  HPGD inh: 1.4%

O=C(O)Cn1c2c(c3ccccc31)CCCC2
  HPGD inh: -24.4%

Fc1ccc(CNC(=S)Nc2ccc(Cl)cc2Cl)cc1
  HPGD inh: -16.2%

O=C(CSC1CC(=O)N(CCc2ccccc2)C1=O)Nc1ccc(Br)cc1 (configuration not stated)
  HPGD inh: -0.2%

O=C(NCC(c1cccs1)N1CCOCC1)c1cc([N+](=O)[O-])cc([N+](=O)[O-])c1 (configuration not stated)
  HPGD inh: -1.1%

O=[N+]([O-])c1ccc(CSc2nc3ccccc3[nH]2)cc1
  HPGD inh: -21.8%

O=C(Nc1ccccc1)c1n[nH]c(Cn2cncn2)n1
  HPGD inh: -6.1%

CSCCC(NS(=O)(=O)c1cccs1)C(=O)NCc1ccccc1 (configuration not stated)
  HPGD inh: -6.5%

Cc1c(C(=O)NCc2ccco2)oc2ccc(S(=O)(=O)N3CCC4(CC3)OCCO4)cc12
  HPGD inh: -12.1%

CC(=O)NCCn1c(SCc2cc(=O)n3cc(Cl)ccc3n2)nc2ccccc2c1=O
  HPGD inh: -23.4%

CCCC(C)n1[nH]c(=O)c2c(C)cc(C)nc21 (configuration not stated)
  HPGD inh: -9.0%

O=C(Cn1ncc2c(=O)oc3ccccc3c21)N1CCN(C(=O)c2ccco2)CC1
  HPGD inh: -5.0%

O=C(CSc1c[nH]c2ccccc12)N1CCCc2ccccc21
  HPGD inh: -16.2%

CSc1nnc(C)c(/C=C/Nc2ccc(C)cc2)n1
  HPGD inh: -17.6%

COc1cc(CC(=O)Nc2ccc(S(=O)(=O)N(C)C)cc2)cc(OC)c1OC
  HPGD inh: -9.8%

CCN(CC(=O)NC)S(=O)(=O)c1ccc(Br)cc1
  HPGD inh: -4.5%

CS(=O)(=O)N1CCN(C(=O)c2cc3ccccc3oc2=O)CC1
  HPGD inh: ?

COC(=O)N/N=C(C)\C=C\c1ccco1
  HPGD inh: -9.5%

Cc1ccc(N2C(S)=C(C#N)C(=O)NC2c2cccs2)cc1 (configuration not stated)
  HPGD inh: 22.4µM*

CCC(C(=O)Nc1cc(Cl)ccc1OC)c1ccccc1 (configuration not stated)
  HPGD inh: -10.4%

CC(C)COC(=O)c1cccc2c1-c1ccccc1/C2=N\O
  HPGD inh: -4.6%

CN(C)C(=O)c1snnc1-c1ccccc1
  HPGD inh: -8.5%

COc1ccc(-n2c(C)nc3cc(C(=O)N4CCOCC4)ccc32)cc1
  HPGD inh: 2.24µM*

O=C(c1cnccn1)N1CCC2(CCCN(c3ccncc3)C2)CC1
  HPGD inh: -0.2%

O=C1NC(Nc2nccs2)(C(F)(F)F)C(=O)N1CCc1ccccc1 (configuration not stated)
  HPGD inh: -3.2%

COc1ccc(S(=O)(=O)N2Cc3ccccc3CC2C(=O)Nc2nccs2)cc1 (configuration not stated)
  HPGD inh: -14.3%

O=c1c2ccccc2sn1-c1cc(S(=O)(=O)N2CCOCC2)ccc1N1CCCC1
  HPGD inh: 0.224µM*

Cc1cccc2cc(CN(CCCO)C(=O)Nc3ccccc3Cl)c(=O)[nH]c12
  HPGD inh: -13.8%

COc1ccc(/C=C(\C#N)C(=O)Nc2cccnc2)cc1
  HPGD inh: -29.9%

COC(=O)CCC(=O)OC1(C)C(=O)C2=CN(c3ccccc3)C(c3ccc(OC)cc3)=CC2=C(Br)C1=O (configuration not stated)
  HPGD inh: -11.6%

Clc1ccc2noc(-c3ccccc3)c2c1
  HPGD inh: ?

COC(=O)c1ccc(COc2ccccc2/C=C(\C#N)C(=O)Nc2c(C)cc(C)cc2C)cc1
  HPGD inh: -11.0%

Cc1cc(C)cc(NC(=S)N2CCN(CCO)CC2)c1
  HPGD inh: -7.2%

O=C(CCCOc1ccc(Cl)cc1Cl)NCCCO
  HPGD inh: -9.9%

Cc1cnn(CCC(=O)NNC(=S)Nc2ccccc2)c1
  HPGD inh: -1.2%

COCCn1nnnc1C(c1cccc(C(F)(F)F)c1)N1CCN(Cc2ccccc2)CC1 (configuration not stated)
  HPGD inh: -17.8%

CCCCCCCSc1nc(N)cc(=O)[nH]1
  HPGD inh: -5.2%

COC(=O)c1ccccc1NC(=O)c1cc(OC)cc(OC)c1
  HPGD inh: -4.9%

Cc1ccccc1NC(=O)c1ccc(Nc2c([N+](=O)[O-])cc([N+](=O)[O-])c3ccccc23)cc1
  HPGD inh: -27.0%

CCOc1ccc(-c2nc(N)ncc2-c2ccc(OC)cc2)c(O)c1
  HPGD inh: -9.2%

O=S(=O)(N1CCCCCC1)N1CCN(S(=O)(=O)N2CCCCC2)CC1
  HPGD inh: -4.6%

CCCCCCCCNc1ncnc2ccccc12
  HPGD inh: -8.6%

Nc1cc(N)cc(-c2nc3ccccc3[nH]2)c1
  HPGD inh: ?

CCOc1ccc(N=C2NC(=O)/C(=C/C(=O)OC)S2)cc1
  HPGD inh: ?

Cc1ccc(S(=O)(=O)N(C)c2cc(S(=O)(=O)Nc3ccncc3)c(C)cc2C)cc1
  HPGD inh: -1.9%

O=C(CN1CCC(n2nnc3cc(F)ccc32)CC1)NCCc1nc2ccccc2[nH]1
  HPGD inh: -4.7%

Cc1ccc(OCCn2cc(/C=N/NC(=O)c3ccncc3)c3ccccc32)cc1
  HPGD inh: -8.9%

COc1cc(NS(=O)(=O)c2ccc3c(c2)oc(=O)n3C)cc(OC)c1OC
  HPGD inh: 0.3%

CCOC(=O)C1CCCN(C(=O)Cn2cccc2C(=O)c2ccccc2)C1 (configuration not stated)
  HPGD inh: -16.0%

Cc1oc2c(c1C(=O)NCc1ccccc1)CCCC2
  HPGD inh: -23.0%

COc1ccc(O)c(C(=O)c2cc(C#N)c(=O)n(CC3CCCO3)c2)c1 (configuration not stated)
  HPGD inh: -28.4%

O=C(O)c1nccnc1C(=O)N1CCN(c2ccccc2)CC1
  HPGD inh: -9.5%

C/C=C/C=C/C=O
  HPGD inh: -8.1%

N#Cc1ccc(C(c2nnnn2Cc2ccccc2)N2CCCC2)cc1 (configuration not stated)
  HPGD inh: -9.6%

COC(=O)c1c(N)n(CCCN2CCOCC2)c2nc3ccccc3nc12
  HPGD inh: ?

NNC(=O)c1ccc[n+](CCc2ccccc2)c1
  HPGD inh: -6.9%

O=C1c2ccccc2NC(c2ccc(Cl)cc2Cl)N1Cc1ccccc1 (configuration not stated)
  HPGD inh: ?

Nc1nncn1C(=O)c1c(Cl)cccc1Cl
  HPGD inh: -3.3%

Cc1ccc(CSc2nnc([C@@H]3CCCN3)o2)cc1
  HPGD inh: -11.3%

Cc1cnn(C(=O)c2cc(-c3ccccc3)nc3ccccc23)c1
  HPGD inh: -6.1%

O=C(Nc1cccn(Cc2ccccc2)c1=O)NC1CCCCC1
  HPGD inh: ?

COc1cccc(C(=O)Nc2ccc(NC(C)=O)cn2)c1
  HPGD inh: -13.1%

CCCOc1ccc(-c2nnn(CC(=O)c3ccc4c(c3)OCCO4)n2)cc1
  HPGD inh: -4.9%

CCCCCCCCCCCCCCCC(=O)OC(CO)CO
  HPGD inh: -21.1%

18 structures from above, arranged by molar mass, ascending.
C/C=C/C=C/C=O
  HPGD inh: -8.1%

NNC(=O)c1ccc[n+](CCc2ccccc2)c1
  HPGD inh: -6.9%

Nc1nncn1C(=O)c1c(Cl)cccc1Cl
  HPGD inh: -3.3%

Cc1oc2c(c1C(=O)NCc1ccccc1)CCCC2
  HPGD inh: -23.0%

Cc1ccc(CSc2nnc([C@@H]3CCCN3)o2)cc1
  HPGD inh: -11.3%

COc1cccc(C(=O)Nc2ccc(NC(C)=O)cn2)c1
  HPGD inh: -13.1%

CCOc1ccc(N=C2NC(=O)/C(=C/C(=O)OC)S2)cc1
  HPGD inh: ?

O=C(O)c1nccnc1C(=O)N1CCN(c2ccccc2)CC1
  HPGD inh: -9.5%

Cc1cnn(C(=O)c2cc(-c3ccccc3)nc3ccccc23)c1
  HPGD inh: -6.1%

O=C(Nc1cccn(Cc2ccccc2)c1=O)NC1CCCCC1
  HPGD inh: ?

CCCCCCCCCCCCCCCC(=O)OC(CO)CO
  HPGD inh: -21.1%

N#Cc1ccc(C(c2nnnn2Cc2ccccc2)N2CCCC2)cc1 (configuration not stated)
  HPGD inh: -9.6%

COc1ccc(O)c(C(=O)c2cc(C#N)c(=O)n(CC3CCCO3)c2)c1 (configuration not stated)
  HPGD inh: -28.4%

CCCOc1ccc(-c2nnn(CC(=O)c3ccc4c(c3)OCCO4)n2)cc1
  HPGD inh: -4.9%

O=C1c2ccccc2NC(c2ccc(Cl)cc2Cl)N1Cc1ccccc1 (configuration not stated)
  HPGD inh: ?

Cc1ccc(OCCn2cc(/C=N/NC(=O)c3ccncc3)c3ccccc32)cc1
  HPGD inh: -8.9%

O=C(CN1CCC(n2nnc3cc(F)ccc32)CC1)NCCc1nc2ccccc2[nH]1
  HPGD inh: -4.7%

Cc1ccc(S(=O)(=O)N(C)c2cc(S(=O)(=O)Nc3ccncc3)c(C)cc2C)cc1
  HPGD inh: -1.9%
